NPR1 antag = Natriuretic polypeptide receptor (hNpr1) antagonism - Primary qHTS | 76,000 tested, 1.6% active | Potency, µM (titrated, usually from 46.3 µM), for inactives: top-dose activity change, negative = inhibition, most hits filed as inhibitors | HEK293 hNpr1 GloSensor cGMP, ANP-stimulated luminescence; active = well fitted inhibition curve with a large enough effect; inconclusive = small, poorly fitted or top-dose-only effect; inactive = no such curve, though single readings can be large or run the other way;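 also: nearly all actives have a fitted effect of over 60% in size; nearly all hits also lower the signal before the agonist is added; a reference antagonist and vehicle were the controls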
Target sequence (P16066 whole entry, looked up): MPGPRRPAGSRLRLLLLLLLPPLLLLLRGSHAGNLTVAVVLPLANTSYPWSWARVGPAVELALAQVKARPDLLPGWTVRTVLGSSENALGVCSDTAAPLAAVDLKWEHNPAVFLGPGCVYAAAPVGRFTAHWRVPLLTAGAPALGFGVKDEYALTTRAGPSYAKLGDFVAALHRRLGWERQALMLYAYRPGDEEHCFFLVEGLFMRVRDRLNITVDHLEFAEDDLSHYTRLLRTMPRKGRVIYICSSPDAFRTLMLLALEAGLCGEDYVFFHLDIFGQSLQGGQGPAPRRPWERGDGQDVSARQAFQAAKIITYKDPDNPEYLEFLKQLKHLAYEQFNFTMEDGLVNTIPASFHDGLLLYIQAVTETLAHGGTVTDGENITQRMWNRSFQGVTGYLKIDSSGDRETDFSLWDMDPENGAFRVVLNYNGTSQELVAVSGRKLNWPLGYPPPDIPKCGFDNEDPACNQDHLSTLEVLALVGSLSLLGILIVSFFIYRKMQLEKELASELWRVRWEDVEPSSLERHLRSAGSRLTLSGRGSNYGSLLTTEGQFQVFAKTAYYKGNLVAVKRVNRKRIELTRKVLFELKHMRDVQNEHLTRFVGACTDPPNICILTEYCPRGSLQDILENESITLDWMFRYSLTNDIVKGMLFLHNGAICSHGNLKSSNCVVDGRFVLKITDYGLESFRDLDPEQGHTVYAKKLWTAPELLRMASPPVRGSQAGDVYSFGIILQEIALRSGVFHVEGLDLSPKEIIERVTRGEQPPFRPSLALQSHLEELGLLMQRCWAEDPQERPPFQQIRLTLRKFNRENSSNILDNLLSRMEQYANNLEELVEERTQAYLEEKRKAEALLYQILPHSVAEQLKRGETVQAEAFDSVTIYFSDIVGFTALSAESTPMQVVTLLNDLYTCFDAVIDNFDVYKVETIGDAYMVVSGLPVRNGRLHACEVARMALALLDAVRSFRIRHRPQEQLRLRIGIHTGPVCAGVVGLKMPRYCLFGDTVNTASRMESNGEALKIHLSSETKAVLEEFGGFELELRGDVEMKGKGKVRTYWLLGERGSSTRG
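HEK293 cells stably expressing human Npr1 and cGMP GloSensor pGS-40F, loaded 2 h with 2% GloSensor reagent, given compound 30 min at room temperature. Luminescence read before and 20 min after 0.1 nM hNppA.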
Numbers without * were called inactive; & = joins results of further samples; [ ] = dose if it differs, or a comment. % is scaled to controls: 0 for no effect and ±100 for the full control effect; potency is read from the fitted curve at half-maximal effect. An excerpt; the hit share may differ from the screen's.

`CC(C)CN1C(=O)c2ccccc2C(C(=O)NCc2ccco2)C12CCCC2` (centres undefined) gave NPR1 antag 2%.
For CN(C)[C@H]1CCCCN(C(=O)c2cccc(-c3cccc(F)c3)c2)C1 the results were NPR1 antag 5%.
`O=C1CCN(C(=O)C2CCN(S(=O)(=O)c3cccc(F)c3)CC2)CCCCCCN1` gave NPR1 antag 7%.
For O=S(=O)(NC[C@@H]1CCNC[C@H]1O)c1ccc(OC(F)(F)F)cc1 the results were NPR1 antag 2%.
CC1=C[C@@H](CNC2CCN(C)CC2)[C@H](C(C)C)C[C@H]1Cc1nc2ccc(F)cc2[nH]1 was read as NPR1 antag -4%[70.6 µM].
COc1ccccc1-c1cc(C(=O)NCc2c(C)cc(C)[nH]c2=O)c2c(c1)N(C)CCO2 was read as NPR1 antag -11%[70.6 µM].
`Cc1ccc(S(=O)(=O)Cc2noc([C@@H]3C[C@@H](O)CN3CC3CCCCC3)n2)cc1` gave NPR1 antag -21%[70.6 µM].
Screening CCOc1ccc(CC(=O)N2CCCN(c3cc(-c4ccc(F)cc4)[nH]n3)CC2)cc1OCC returned NPR1 antag -6%.
Screening CN(CC1(C)CCOCC1)C(=O)c1cccs1 returned NPR1 antag -9%.
For COc1ccc(CN[C@@H]2C=C[C@@H](c3c(C)nn(-c4cccc(Br)c4)c3C)C2)cc1 the results were NPR1 antag -21%.
COc1ccc(CN2C[C@@H](CO)[C@H](c3nc(C)no3)C2)cc1C was read as NPR1 antag -1%.
CCCc1noc(-c2cn(C3CCN(C(=O)c4ccsc4)CC3)nn2)n1 was read as NPR1 antag 0%.
O=C(Cc1cccc(F)c1)NC1CCN(c2ccc(F)cc2)C1=O (centres undefined) was read as NPR1 antag -1%.
CC(C)c1ccc(CN2CC[C@@H]3OCC(=O)N(Cc4ccccc4)[C@H]3CC2)cc1 was read as NPR1 antag inconclusive.
For COC[C@@H]1CN(C(=O)COc2cccc(C)c2)C[C@H]1c1ccncc1 the results were NPR1 antag 6%.
Screening CC(=O)Nc1ccc(CN2CC[C@H](c3nnc(C(C)(C)C)o3)C2)cc1 returned NPR1 antag 5%[70.6 µM].
O=S(=O)(NC[C@H]1OC[C@@H](NCc2ccc(F)cc2)[C@@H]1O)c1ccccc1 was read as NPR1 antag 3%[70.6 µM].
For O=C(c1ccccn1)N1CCC2(CC1)CC(N(Cc1ccccc1)C1CC1)CCO2 (centres undefined) the results were NPR1 antag -1%.
For CNC(=O)[C@@H](C1CC1)N1CCC[C@H]1C(=O)N1CCCCC1 the results were NPR1 antag -2%[70.6 µM].
CCC(C)NC(=O)CC1Sc2ncccc2N(CC)C1=O (centres undefined) was read as NPR1 antag 1%.

Overlap with the part before: 4 entries; new compounds follow.
O=S(=O)(NC[C@H]1OC[C@@H](NCc2ccc(F)cc2)[C@@H]1O)c1ccccc1 was read as NPR1 antag 3%[70.6 µM].
For O=C(c1ccccn1)N1CCC2(CC1)CC(N(Cc1ccccc1)C1CC1)CCO2 (centres undefined) the results were NPR1 antag -1%.
For CNC(=O)[C@@H](C1CC1)N1CCC[C@H]1C(=O)N1CCCCC1 the results were NPR1 antag -2%[70.6 µM].
CCC(C)NC(=O)CC1Sc2ncccc2N(CC)C1=O (centres undefined) was read as NPR1 antag 1%.
Screening CCN1C(=O)CCN(S(=O)(=O)c2cccc(F)c2)CC12CCOCC2 returned NPR1 antag 1%.
COCC(=O)N1CCOC[C@H](Oc2cnccn2)C1 was read as NPR1 antag -2%[70.6 µM].
Screening O=C(Nc1nccs1)[C@@H]1C[C@@H](c2ccc(F)cc2)N(Cc2ccccc2)C1 returned NPR1 antag inconclusive.
CNC(=O)c1cc(Br)cn2ccnc12 was read as NPR1 antag 8%&8%[70.6 µM].
CNC(=O)C(C)(C)N1CCC[C@H]1C(=O)N1CCC(C)CC1 was read as NPR1 antag 2%[70.6 µM].
`Cc1c(-c2ccc(Cl)cc2)n[nH]c1C(=O)N[C@@H]1CCNC[C@H]1O` gave NPR1 antag 3%.
O=C(Nc1cccc(Cl)c1)C1=NO[C@@H]2CN(c3ccccn3)C[C@H]12 was read as NPR1 antag -8%[70.6 µM].
COc1cccc(CC(=O)NCc2nnc3ccc(-c4ccc(C)c(C)c4)nn23)c1 was read as NPR1 antag -10%.
For Cc1cccc(CNC(=O)C2CCCN(c3cnc4nc(C)c(C)nc4c3)C2)c1 (centres undefined) the results were NPR1 antag 5%.
Screening O=C(c1ccc2c(c1)OCO2)N1CCn2c(nnc2-c2ccccc2)C1 returned NPR1 antag 2%.
For O=C(c1cscn1)N1CCC2(CC1)CN(c1ccncn1)CC2CO (centres undefined) the results were NPR1 antag -1%.
Screening O=C(Nc1ccc2c(N3CCCCC3)ncnc2c1)c1ccc(F)cc1F returned NPR1 antag 3%.
Screening Cc1cccc(NC(=O)c2cnc(-c3ccccc3)nc2-c2ccncc2)c1C returned NPR1 antag -27%.
Screening CCc1ccc(NC(=O)Cn2c(-c3ccc(Cl)cc3)nc(C)c(CCO)c2=O)cc1 returned NPR1 antag -4%.
CCCCC(=O)NC1CCN(c2cnn(CC3CC3)c(=O)c2)CC1 was read as NPR1 antag -8%.
Cc1cc(Cl)ccc1S(=O)(=O)NCCn1c(C)cnc1C1CCC1 was read as NPR1 antag -8%.
For CC1=C[C@@H](CNC(=O)CCCC(=O)O)[C@H](C(C)C)C[C@H]1Cc1nc2ncccc2[nH]1 the results were NPR1 antag 2%[70.6 µM].
`O=C(c1ccccc1OCC1CCCN(Cc2ccncc2F)C1)N1CCCC1` (centres undefined) gave NPR1 antag 3%.
`CCOc1ccc(NC(=O)Cn2c(=O)c(-c3noc(C)n3)c3n(c2=O)CCCCC3)cc1` gave NPR1 antag 1%.
For CNC(=O)[C@@H]1C[C@H](Oc2ccccc2)CN1C(=O)CCC1CCCC1 the results were NPR1 antag -2%.

By substructure, those above with a thiophene ring, fused or not.
Screening CN(CC1(C)CCOCC1)C(=O)c1cccs1 returned NPR1 antag -9%.
CCCc1noc(-c2cn(C3CCN(C(=O)c4ccsc4)CC3)nn2)n1 was read as NPR1 antag 0%.

The results go on:
For COC[C@@H]1CN(C(=O)c2cccn2C)C[C@H]1c1nc(C2CC2)no1 the results were NPR1 antag 5%.
Screening O=C(CCc1ccnc(N2CCOCC2)c1)N1CCCN(c2ncccn2)CC1 returned NPR1 antag -14%.
For Cc1noc(C)c1-c1cc2cc(C(C)C)oc2c(NCc2cccnc2)n1 the results were NPR1 antag 2%[70.6 µM].
For CCN1CCC2(CCC1=O)CN(Cc1nnc(-c3cccnc3)o1)CCN2C (centres undefined) the results were NPR1 antag 4%.
c1ccc(CN2CCC(Oc3cnc4c(ccn4-c4cncnc4)c3)CC2)cc1 was read as NPR1 antag -4%[70.6 µM].
For COCCN1C(=O)c2ccccc2C(C(=O)NCCCOC(C)C)C12CCCCC2 (centres undefined) the results were NPR1 antag 1%.
`Cc1cnc(C(=O)N[C@@H]2CCC[C@@H]2C(=O)NCc2cc(F)cc(F)c2)cn1` gave NPR1 antag -2%.
For CC1Oc2ccc(NC(=O)c3cccs3)cc2CN(CCOc2ccccc2)C1=O (centres undefined) the results were NPR1 antag -20%.
Screening CC1=C[C@@H](CNC(=O)c2ccco2)[C@H](C(C)C)C[C@H]1CC(=O)N(C)Cc1ccccc1 returned NPR1 antag 1%[70.6 µM].
CC1=C[C@@H](CN2CCN(C)CC2)[C@H](C(C)C)C[C@H]1Cc1nnc(-c2ccc(C)cc2)o1 was read as NPR1 antag -11%[70.6 µM].
Screening O=C(CC1CCCCC1)N1CC2CC(C1)[C@H]1CCCC(=O)N1C2 (some centres undefined) returned NPR1 antag 0%.
`O=C(NCCN1CCCC1)C1Cn2cccc2C(=O)N1Cc1cccnc1` (centres undefined) gave NPR1 antag 4%.
`Cn1cccc1-c1cc(C(=O)N2CCOCC2CC(=O)Nc2ccccc2)[nH]n1` (centres undefined) gave NPR1 antag -1%.
Screening COc1cccc(CC(=O)N2CCC(N3C(=O)C(OCC4CC4)C34CCCCC4)CC2)c1 (centres undefined) returned NPR1 antag -2%.
For O=C(NC[C@H]1OC[C@@H](NCc2cnc[nH]2)[C@@H]1O)c1cccs1 the results were NPR1 antag 1%[70.6 µM].
CCCNC(=O)N1CCC(N2CC(OCC3CC3)C23CCCCC3)CC1 (centres undefined) was read as NPR1 antag 6%.
Screening O=[S+]1([O-])NCC2(CCN(Cc3ccc(F)cc3)CC2)Nc2ccccc21 returned NPR1 antag 7%.
Cn1cc(C(=O)N2C[C@@H](COCC3CC3)[C@H](c3ccccn3)C2)cn1 was read as NPR1 antag -11%.
Screening CC(C)c1ccc(CC(=O)N2CCCc3ncc(C(=O)NCC(C)(C)CO)cc32)cc1 returned NPR1 antag -4%[70.6 µM].
Screening Cc1ccc2c(ccn2CCNC(=O)Cn2nc3c(cc2=O)CCCCC3)c1 returned NPR1 antag 3%.
Screening Cc1ccc([C@H]2C[C@@H](O)[C@@H](O)[C@@H]2NS(C)(=O)=O)cc1 returned NPR1 antag 1%[70.6 µM].
Screening COc1cccc(CC(=O)N[C@@H]2C[C@H](COc3cccc(C)n3)[C@@H](O)[C@H]2O)c1 returned NPR1 antag 2%[70.6 µM].
Screening CC(C(=O)N1CCC(c2n[nH]c(=O)n2-c2ccccc2)CC1)c1ccccc1 (centres undefined) returned NPR1 antag 0%.
Screening O=C(c1cnccn1)N1CCC(c2noc(C3CC3)n2)C1 (centres undefined) returned NPR1 antag 1%.
For CC(C)N1C[C@H](O)C[C@H]1c1nnc2n1CCN(C(=O)c1nccc3ccccc13)CC2 the results were NPR1 antag -9%.
`O=C(O)c1cc(-c2ccccc2CO)cc(S(=O)(=O)N2CCCCCC2)c1` gave NPR1 antag 2%.
Screening COc1cccc(CN2CCCC(c3ccc(C(=O)O)cc3)C2)c1OC (centres undefined) returned NPR1 antag -2%.
Screening CN(Cc1ccccc1)C(=O)C[C@@H]1CCNC[C@@H]1Cc1cc(-c2ccc(F)cc2)on1 returned NPR1 antag -23%[70.6 µM].
Screening CN(C)[C@@H]1CN(C(=O)C2CCCCC2)CC[C@@H]1CO returned NPR1 antag 15%.
For CC1CCC(C(=O)Nc2ccc(-c3nnc4n3CCCC4)cc2)CC1 (centres undefined) the results were NPR1 antag -1%.
Screening CC#CCn1cc2c3c(cccc31)[C@H](CC(C)C)N[C@H](C(=O)NCCN1CCOCC1)C2 returned NPR1 antag -10%[70.6 µM].
O=C1[C@@H]2C[C@@H](CN2Cc2ccccn2)Oc2ccccc2N1CC1CC1 was read as NPR1 antag -14%[70.6 µM].
O=C1Nc2ccc(Br)cc2C(=O)N2CC[C@H](NS(=O)(=O)c3cccs3)C[C@@H]12 was read as NPR1 antag -22%.
Screening COc1ccccc1CC(=O)N1CCC2(CC1)N=C(c1ccccc1)NO2 returned NPR1 antag -1%.
Cn1ncc(N2CCC(CNC(=O)c3cccc(CO)n3)C2)cc1=O (centres undefined) was read as NPR1 antag -5%.
CCNC(=O)N1CCCCCC1CN1CCCC1 (centres undefined) was read as NPR1 antag -4%.
Cc1noc(C)c1S(=O)(=O)NCCc1ncc(C)n1C1CC1 was read as NPR1 antag -2%.
For Cc1n[nH]c(C)c1CN1CCC2(CC1)CN(Cc1ccccc1)CC2CO (centres undefined) the results were NPR1 antag -9%.
O=C(CCn1cnnn1)N1CCCC(CCc2cccc(C(F)(F)F)c2)C1 (centres undefined) was read as NPR1 antag -13%.
`O=C(C1CCN(c2cnn(CC3CC3)c(=O)c2)C1)N1CCc2ccccc2C1` (centres undefined) gave NPR1 antag -3%.

Overlap with the part before: two compounds; new compounds follow.
O=C(CCn1cnnn1)N1CCCC(CCc2cccc(C(F)(F)F)c2)C1 (centres undefined) was read as NPR1 antag -13%.
`O=C(C1CCN(c2cnn(CC3CC3)c(=O)c2)C1)N1CCc2ccccc2C1` (centres undefined) gave NPR1 antag -3%.
CCN1C(=O)CCc2cc(NC(=O)c3cc(F)cc(F)c3)ccc21 was read as NPR1 antag -3%.
CCCNC(=O)Cc1ccc(N(Cc2ccc(OC)cc2)C(=O)c2ccco2)cc1 was read as NPR1 antag 6%.
O=C(C[C@H]1NC(=O)c2ccccc2NC1=O)Nc1nnc(C2CCCO2)s1 (some centres undefined) was read as NPR1 antag -2%.
Screening CNC(=O)[C@H]1C[C@H](Oc2ccccc2)CN1C(=O)c1cc(-c2ccc(F)cc2)n[nH]1 returned NPR1 antag -2%.
NC(=O)C1(c2nc(-c3ccncc3)nn2-c2ccc3c(c2)OCCO3)CC1 was read as NPR1 antag 5%.
`CC1=C[C@@H](CNCCN(C)C)[C@H](C(C)C)C[C@H]1Cc1nnc(-c2ccc(C)cc2)o1` gave NPR1 antag -3%[70.6 µM].
Screening CN(C(=O)c1ccccc1Cl)C1CCc2ccccc21 (centres undefined) returned NPR1 antag -3%[70.6 µM].
`CNC(=O)C1(N2CCC[C@H]2C(=O)NCCOC)CCCCC1` gave NPR1 antag 4%[70.6 µM].
For Cc1cc(OC2CN(Cc3ccnn3C)C2)ccc1F the results were NPR1 antag -9%[70.6 µM].
`O=C(Cc1ccsc1)Nc1ccc2c(c1)CCC(=O)N2` gave NPR1 antag -1%.
For O=C(O)CCC(=O)N[C@H]1CCN2C(=O)c3cc(-c4cccs4)ccc3NC(=O)[C@H]12 the results were NPR1 antag -1%[70.6 µM].
For Cc1cc(=O)[nH]c(NCCNc2cc(C3CC(N)C3)nc(N(C)C)n2)n1 (centres undefined) the results were NPR1 antag -3%.

Sorted by number of heavy atoms (ascending): some entries from above.
Screening O=C(Nc1ccc2c(N3CCCCC3)ncnc2c1)c1ccc(F)cc1F returned NPR1 antag 3%.
For Cc1cccc(CNC(=O)C2CCCN(c3cnc4nc(C)c(C)nc4c3)C2)c1 (centres undefined) the results were NPR1 antag 5%.
For CC(C)N1C[C@H](O)C[C@H]1c1nnc2n1CCN(C(=O)c1nccc3ccccc13)CC2 the results were NPR1 antag -9%.

Screens deposited in PubChem by National Center for Advancing Translational Sciences (NCATS).
